Assay outcomes deposited in PubChem by Fisher Drug Discovery Resource Center.
NPYLR7 agonist – mosquito NPYLR7 agonism; HEK293T NPYLR7/Galpha15, GCaMP6s calcium fluorescence; activation, % at 10 µM; AID 1259423; actives 0.15% (n = 270,000); in the data active means activation above about 40%;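 further: 0% = vehicle and 100% = reference agonist at the receptor; some compounds past the cut are filed as inactive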
NPYLR7 agonist max-min – recorded beside NPYLR7 agonist, whose call it bears; activation, %; measured here: Max-Min RFU normalised activation; some inactives read as strong as hits;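 span of the calcium signal over five minutes; 0% = vehicle and 100% = native peptide agonist; compound fluorescence can raise it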
* hit, by the source's call; & = joins results of further samples. The list is partial, so the mix of outcomes need not match the whole.

SMILES | NPYLR7 agonist | NPYLR7 agonist max-min
OCCC1CN(CC2CCCCC2)CCN1Cc1ccc(F)c(F)c1 (configuration not stated) | 6 | 0
CCCOc1ccc(-c2ccc(-c3noc(-c4cccc(Br)c4)n3)cc2)cc1 | 6 | 11
COC(=O)c1sccc1N=Cc1c(O)[nH]c(=O)[nH]c1=O | 0 | -3
O[C@H]1CN(c2nc3ccccc3s2)C[C@@H]1N1CCN(c2ccccn2)CC1 | 16 | 14
COc1ccc(-c2ccc(N3CCC(C(=O)Nc4ccccc4[N+](=O)[O-])CC3)nn2)cc1 | -14 | -14
CCCCN(CC(=O)N(CCc1c[nH]c2ccccc12)Cc1ccccc1)C(=O)Nc1ccccc1F | -1 | -6
CCCCCCCC(=O)N(CC(=O)NCC(=O)Nc1cccc(C)c1)Cc1ccco1 | 4 | 14
OC[C@@H]1CCCN1Cc1csc(-c2ccc(Br)cc2)n1 | -4&7 | -5&6
Nc1ncc(Br)cc1S(=O)(=O)N1CCOCC1 | 4 | 2
O=C(c1c(-n2cccc2)sc2c1CCSC2)N1CCN(C(=O)C2COc3ccccc3O2)CC1 (configuration not stated) | 4 | 5
O=C(NCC1CCCOC1)c1ccccc1-c1ncc(-c2ccc(F)cc2)o1 (configuration not stated) | 1 | 5
Cn1c(=O)n(CCCO)c(=O)c2c1nc1n2CCCN1CCc1ccccc1 | 1 | -4
Cc1ccc2nc(SCC(=O)NCC3CCCO3)nc(=O)n2c1 (configuration not stated) | 5 | 2
Cc1nnsc1CN(C)c1nccc(CCC(F)(F)F)n1 | 6 | 5
C(=NNc1ccc2ccccc2n1)c1cccs1 | 6 | 3

12 compounds out of the list, sorted by SMILES length, low to high.
SMILES | NPYLR7 agonist | NPYLR7 agonist max-min
C(=NNc1ccc2ccccc2n1)c1cccs1 | 6 | 3
Nc1ncc(Br)cc1S(=O)(=O)N1CCOCC1 | 4 | 2
Cc1nnsc1CN(C)c1nccc(CCC(F)(F)F)n1 | 6 | 5
OC[C@@H]1CCCN1Cc1csc(-c2ccc(Br)cc2)n1 | -4&7 | -5&6
COC(=O)c1sccc1N=Cc1c(O)[nH]c(=O)[nH]c1=O | 0 | -3
Cn1c(=O)n(CCCO)c(=O)c2c1nc1n2CCCN1CCc1ccccc1 | 1 | -4
O=C(NCC1CCCOC1)c1ccccc1-c1ncc(-c2ccc(F)cc2)o1 (configuration not stated) | 1 | 5
CCCOc1ccc(-c2ccc(-c3noc(-c4cccc(Br)c4)n3)cc2)cc1 | 6 | 11
O[C@H]1CN(c2nc3ccccc3s2)C[C@@H]1N1CCN(c2ccccn2)CC1 | 16 | 14
O=C(c1c(-n2cccc2)sc2c1CCSC2)N1CCN(C(=O)C2COc3ccccc3O2)CC1 (configuration not stated) | 4 | 5
CCCCN(CC(=O)N(CCc1c[nH]c2ccccc12)Cc1ccccc1)C(=O)Nc1ccccc1F | -1 | -6
COc1ccc(-c2ccc(N3CCC(C(=O)Nc4ccccc4[N+](=O)[O-])CC3)nn2)cc1 | -14 | -14

(listing goes on)
SMILES | NPYLR7 agonist | NPYLR7 agonist max-min
O=C(NC1CC1)c1coc(CN(Cc2ccc(F)cc2)Cc2cccc(Cl)c2Cl)n1 | 4 | 15
COc1ccc(C2=NC(=Cc3csc(-c4ccc(OC)cc4)n3)C(=O)O2)cc1 | 5 | 1
CCOc1nn(CC)cc1C(=O)Nc1cccc(C)c1 | 10 | 14
CCC(C)(C)NS(=O)(=O)c1c(C)c(C)cc(C)c1C | 16 | 8
Cc1ccc(C(C)C)c(OCC(=O)N2CCC(C(=O)Nc3ccc4c(c3)OCO4)CC2)c1 | 6 | 2
CN(Cc1ccccc1C(F)(F)F)c1ncc(C(N)=O)cc1Cl | -6 | -8
COCCNC(=O)c1cnn2c(C(F)(F)F)cc(-c3cccs3)nc12 | 0 | 0
CCCCC1C=CCN1C(=O)c1ccc(N2CC(=O)NC2=O)cc1 (configuration not stated) | 5 | 2
O=C(CN1CCC(c2ccccc2)C1)N1CCc2c(nc[nH]c2=O)C1 (configuration not stated) | 5 | -2
CCN(CCCNC(=O)C(=O)c1c(C)[nH]c2ccccc12)c1cccc(C)c1 | -3 | -5
COCCn1ccnc1CN1C(C)CCCN1c1ccccc1 (configuration not stated) | -2 | -2
CCC(CC)C(=O)N(C)c1c(C)nc2c(OCc3ccc(C(F)(F)F)cc3)cccn12 | 0 | -6
COC(=O)CN(C)C(=O)c1ccc(COc2ccccc2C#N)o1 | -5 | -5
CC(CN1c2ccccc2Sc2ccccc21)N(C)C (configuration not stated) | -13&-5&-9&-3&1 | 7&-10&-13&-7&-9
Cc1cc(C)cc(-n2c(C)cc(C=C3C(=O)N(c4ccccc4)C(=S)N(c4ccccc4)C3=O)c2C)c1 | 1 | -2

The closing two compounds of the part above lead into the next:
SMILES | NPYLR7 agonist | NPYLR7 agonist max-min
CC(CN1c2ccccc2Sc2ccccc21)N(C)C (configuration not stated) | -13&-5&-9&-3&1 | 7&-10&-13&-7&-9
Cc1cc(C)cc(-n2c(C)cc(C=C3C(=O)N(c4ccccc4)C(=S)N(c4ccccc4)C3=O)c2C)c1 | 1 | -2
CN(Cc1ccsc1)Cc1ccc(-c2ccn[nH]2)o1 | 14 | 10
CCOC(=O)C1CCN(C(=O)c2ccc(-n3nc(-c4ccc(OC)cc4)cc3N)cc2)CC1 | 0 | 0
CCN(C(=O)c1ccc(OCC(=O)NC(C)C)c(OC)c1)c1ccc(C)cc1C | -3 | -4
COc1cc(NC(=O)CN2CCC(c3c[nH]c4ccccc34)CC2)c(OC)cc1Cl | 1 | 0
COc1ccccc1-n1cc(C(=O)N2CCCC(Nc3cccc(F)c3)C2)cn1 (configuration not stated) | 1 | -3
CCOc1ccc2nc(SCC(=O)Nc3ncc(C(F)(F)F)cc3Cl)sc2c1 | -5 | -13
COc1ccccc1NC(=O)N1CCN(CC(OCc2ccc(C(F)(F)F)cc2)c2ccc(Cl)cc2)CC1 (configuration not stated) | 16 | 2
COCCCN(CC(=O)N(CCc1ccc(OC)c(OC)c1)Cc1ccc(C)s1)C(=O)Nc1cc(C(F)(F)F)cc(C(F)(F)F)c1 | -9 | -14
O=C1CC(N2CCN(c3ccccn3)CC2)C(=O)N1CCc1ccccc1 (configuration not stated) | 4 | 2
Cc1cc(O)c(CN2CCN(C)CC2)c2c1C(=O)/C(=C/c1cccs1)O2 | 49* | 45*
O=C(CSc1nc2scc(-c3ccccc3)c2c(=O)n1-c1ccccc1)NCc1ccco1 | -4 | -9
Cc1cc(/C=C(/C#N)c2nnc(-c3ccccc3)n2C)cc(C)c1O | -9 | 22
CCOC(=O)C1=C(C)NC2=C(C(=O)CC(c3ccccc3)C2)C1c1ccccc1OC(C)C (configuration not stated) | 1 | 1
CCCNC(=O)CNC(=O)N1CCN(S(=O)(=O)c2c(C)cc(C)cc2C)CC1 | 16 | 16
Cc1ccc(C)c(NC(=O)C(C)Nc2cccc(OC3CCCC3)c2)c1 (configuration not stated) | 7 | 5
CCCCN(C)C(=O)NCCN(C)C1CCCC1 | -1 | -9
O=C(CCCn1cnnn1)Nc1cnc2n1CCCC2 | 9 | 5
O=C(Nc1ccncc1)c1csc(I)c1 | 5 | 5
O=C(NCCCN1CCOCC1)C1CC(=O)N(C2CCCC2)C1 (configuration not stated) | -4 | -5
COc1ccccc1C1=NN(C(=O)CN2CCN(c3ccccc3F)CC2)C(c2ccc(C)cc2)C1 (configuration not stated) | -2 | 3
CC(C)c1nccn1Cc1cc(C(=O)N(Cc2ccccn2)C2CC2)n[nH]1 | 3 | 48
CN1CCCc2cc(C(CNC(=O)c3cccs3)N3CCCCC3)ccc21 (configuration not stated) | 7 | 3
CC(C)CCN1CCNC(=O)C1CC(=O)NCc1ccc(-n2cccn2)cc1 (configuration not stated) | 5 | -2
CCOC(=O)[C@@H]1[C@@H](OC(N)=O)C(=O)N(Cc2ccccc2)C12CCN(C(=O)c1ccccc1)CC2 | 28 | 41
C=CCCC(O)CN(CCc1nc(-c2cc(OC)c(OC)c(OC)c2)no1)Cc1ccccc1 (configuration not stated) | 5 | 5
CCOC(=O)C(C#N)=CNc1nc2c(s1)CC(C)CC2 (configuration not stated) | -6 | -7
CCCN(C(=O)CN1C(=O)NC(CC(C)C)C1=O)C1=CCCCC1 (configuration not stated) | 2 | 1
CC1=NC2=C(C(=O)CCC2)C(c2ccccc2Cl)C1C(=O)OCCc1ccccc1 (configuration not stated) | -3 | -7
Cc1ccc(C)c(S(=O)(=O)N2CCN(CC(=O)NC3CCCCC3)CC2)c1 | 13 | 13
O=c1oc(-c2ccco2)nc2ccccc12 | 5 | 2
CCCc1noc(CS(=O)(=O)C(C)C(=O)NC(C)(C)C)n1 (configuration not stated) | -3 | -4
CC(=O)Nc1ccccc1NC(=O)CN1CCC(Oc2cccc(C)c2)CC1 | 3 | 1
O=C(c1ccc2[nH]ccc2c1)N1CCOc2ccc(CN3CCN(CCO)CC3)cc2C1 | 6 | 0
CCOc1cccc(C(C)NS(=O)(=O)c2cn(C)c(=O)n(C)c2=O)c1 (configuration not stated) | 7 | 6
CCOc1ccccc1NC(=O)CSc1nc(=O)n(N2CCN(C)CC2)c2c1CCC2 | -6 | -12
Cc1ccc2c(c1)oc(=O)n2C1CCN(C(=O)c2ccco2)CC1 | 27 | 25
COCCN(CC(=O)N1N=C(c2cccn2C)CC1c1ccccc1)C(=O)COC (configuration not stated) | 6 | 4
COCc1cc(C(=O)OC(C)c2cnccn2)ccc1F (configuration not stated) | 13 | 10
CCOC(=O)c1c(NC(=O)Cc2ccc(Cl)cc2)sc(C(=O)Nc2cccc(OC)c2)c1C | -10 | -7
O=S(=O)(Nc1cc(F)ccc1F)c1cc(C(F)(F)F)ccc1Cl | 2 | 9
Cc1nc2ccccc2nc1CN1CCC(CNC(=O)NC(C)C)C1 (configuration not stated) | 3 | 2
CN(C(=O)CCCc1nc2ccccc2s1)C1CCS(=O)CC1 (configuration not stated) | 1 | -1
COC(=O)CN1C(=O)/C(=C\c2ccc(F)cc2)SC1=S | -3 | -6
Cc1cc(Cl)ccc1NC(=O)CCc1ccc2c(c1)OCCO2 | 0 | -2
Cc1cc2cc(CNC(=O)CCCc3ccccc3)ccc2[nH]1 | 4 | 2
Cc1cc(=O)[nH]c(NN=Cc2c(C)[nH]c3ccccc23)n1 | -6 | 6
Cc1cc(=O)[nH]c2nnc(SCC(=O)N3CCC(C)CC3)n12 | -9 | 0
CCOc1nn(CC)cc1C(=O)O | -3 | -6
Cc1ccc(NC(=O)CN2C(=O)c3cccc4c(Cl)ccc2c34)cc1C | -1 | -1
COc1cc(C(=O)N2CCOC(COc3ccccc3OC)C2)ccc1F (configuration not stated) | -8 | -8
CN1C(=O)N(C)C2(c3ccccc3)N(C(C)(C)C)C(=O)NC12c1ccccc1 (configuration not stated) | 8 | 25
O=C1CSC(c2ccccn2)N1c1ccc(F)cc1F (configuration not stated) | -5 | -11
COC(=O)C1CCC(=S)N1C(=O)OC (configuration not stated) | 8 | 10
O=C(Cc1ccccc1)N1CCCN(c2nc(CN3CCOCC3)cc(=O)[nH]2)CC1 | 7 | 4
CCN(CCNC(=O)CN(C)S(=O)(=O)c1ccccc1)C1CC1 | 8 | 3
COc1ccc(C(=O)N2C(C(=O)NCc3cccc(C(F)(F)F)c3)COC23CCN(C(=O)c2ccccc2C)CC3)cc1 (configuration not stated) | 3 | 11
CCOC(=O)N1CCN(C(=O)CC(c2ccc3c(c2)OCO3)c2cn(CC)c3ccccc23)CC1 (configuration not stated) | 3 | 8
CN=c1scc(-c2ccc(Br)cc2)n1N=Cc1ccccc1I | -1 | -9
Cc1nnc2c(C(=O)NCCc3ccccc3)cccn12 | 6 | 3
COc1ccc(-c2nc3ccc(C)cn3c2NC(=O)c2ccc(C(F)(F)F)cc2)cc1OC | -4 | 4

The listing continues:
SMILES | NPYLR7 agonist | NPYLR7 agonist max-min
CN1C(=C2C=NN(c3ccccc3)P2(=O)Nc2ccc([N+](=O)[O-])cc2)C(C)(C)c2ccccc21 (configuration not stated) | 7 | 5
CCCCCCn1c(N2CCC(C(N)=O)CC2)nc2c1c(=O)[nH]c(=O)n2C | 3 | 3
CCCCN(C(C)=O)c1c(N)n(Cc2ccccc2)c(=O)n(C)c1=O | 2 | 0
COc1ccc2cc(C(=O)N3CCCC(C(=O)c4cccc5ccccc45)C3)n(C)c2c1 (configuration not stated) | 7&-2 | 6&-9
Cc1cc(C)n(CCNc2nccc(N3CCC(O)C3)n2)c(=O)n1 (configuration not stated) | 15 | 7
COC(=O)c1ccccc1OC(=O)c1cccc(S(=O)(=O)N(C)C)c1 | 2 | 1
O=S(=O)(NNc1ccc(F)cc1F)c1cccc(Cl)c1 | -5 | -8
CCN(C(=O)CCc1ccccc1)C(C)C(=O)c1c(C)c(C(=O)OC)n(C)c1C (configuration not stated) | -6 | -2
O=C(NCc1cccc2c1OCCCO2)c1ccc(S(=O)(=O)NC2CC2)cc1 | 4 | 3
CC/C=C(\C)CN1CCC(CNC(=O)C2(N)CCCC2)C1 (configuration not stated) | 8&-3 | 16&-3
CC(=O)Oc1cccc(C)c1 | 2 | 3
CC1C(=O)C(C)C(c2cccs2)NC1c1cccs1 (configuration not stated) | 0 | 0
CCCCOc1ccc(-c2nc(C=Nc3ccc(S(=O)(=O)NC(C)=O)cc3)c(O)o2)cc1 | 1 | -3
CCN(CC)S(=O)(=O)NCC1CCN(Cc2cccs2)C1 (configuration not stated) | 2 | 2
CN1CCN(c2nc(-c3ccc(Br)s3)cs2)CC1 | 9 | 10
Nc1nnc(SCC(=O)Nc2ccnn2C2CCCC2)s1 | 1 | 4
COc1ccc(-c2csc(=Nc3ccccc3SC)n2Cc2cccc(OC)c2)cc1 | -6 | -12
O=C(CS(=O)(=O)c1ccc2c(c1)S(=O)(=O)N=CN2)N1CCC(Cc2ccccc2)CC1 | -2 | -13
O=C(NCCCN1CCCC1=O)C(C1CCCC1)N1CCN(C(=O)c2ccc([N+](=O)[O-])cc2)CC1 (configuration not stated) | -3 | -1
Cn1c(=O)c2c(nc(CN3CCOCC3)n2CC(=O)c2ccccc2)n(C)c1=O | -1 | -2
Cc1ccccc1C1c2ccsc2CCN1C(=O)CN(C1CCCCC1)S(=O)(=O)/C=C/c1ccccc1 (configuration not stated) | -10 | -1
